NPYLR7 agonist: agonists of mosquito NPYLR7 receptor, primary screen, cell-based, Aedes aegypti, calcium fluorescence, mosquito biting behavior; activation, % at 10 µM; 0.15% of 270,000 active; HEK293T NPYLR7/Galpha15, GCaMP6s calcium fluorescence; Aedes aegypti neuropeptide Y-like receptor 7 (NPYLR7); AID 1259423, 2018; in the data active = activation above about 40%;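 also: 0% = vehicle and 100% = reference agonist at the receptor; some compounds past the cut are filed as inactive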
NPYLR7 agonist max-min: also measured in NPYLR7 agonist; calls as there; activation, %; measured here: Max-Min RFU normalised activation; some inactives read as strong as hits;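 span of the calcium signal over five minutes; 0% = vehicle and 100% = native peptide agonist; compound fluorescence can raise it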
Numbers without * were called inactive; & = joins results of further samples.

SMILES	NPYLR7 agonist	NPYLR7 agonist max-min
CN1CCN(C(=O)c2ccccc2-c2ncc[nH]2)CC1C(=O)O (centres undefined)	17.7	14.9
O=S(=O)(c1cccc(Cl)c1Cl)N1CCCC1c1ccc2c(c1)OCCO2 (centres undefined)	0.5	-6.5
O=C(c1ccno1)N(CCCN1CCOCC1)c1nc2ccccc2s1	-0.3	27.6
O=C(NNc1ccccc1)c1nc(-c2ccccc2)cc(-c2ccccc2)n1	-2.1	2.8
Cc1nccn1-c1cc(NCCNS(=O)(=O)c2ccc(C(F)(F)F)cc2)ncn1	-10.7	-10.2
CCc1[nH]nc2c1C(c1ccc(C)o1)C(C#N)C(=N)O2 (centres undefined)	6.2	4.5
O=S(=O)(Nc1ccccc1CO)c1ccc(Cl)c(Cl)c1	7.5	1.9
CN1CCC(CNC(=O)C2(N)CCC2)C1 (centres undefined)	1.3	-1.3
Cc1ccc(-c2ccc(C(=O)N3CCCC3)cn2)c(-n2cccn2)c1	8.7	-4.5
CC(=O)N1CCN(c2nc(C)cc(Nc3ccc(C)cc3)n2)CC1	6.4	-0.4
CC(C)c1cc(CN(C)Cc2cn[nH]c2-c2ccc(F)cc2)no1	-0.2	-0.3
CC1(C)C[C@@H]2C[C@@](C)(CN2C(=O)c2coc(COc3ccccc3)n2)C1	2.2	-1.9
CS(=O)(=O)c1oc(-c2ccc(F)cc2)nc1S(=O)(=O)c1ccc(Br)cc1	3.3	1.1
Cc1cccc(NC(=O)Cn2cnc3nc(N4CCC(C(=O)N5CCCCC5)CC4)sc3c2=O)c1	3.3	4.4
COc1ccc(CN2CCN(Cc3ccc(F)cc3)CC2CCO)c(F)c1 (centres undefined)	10.4	0.7
CCCC(=O)Nc1ccc(C(=O)NNC(=O)c2cccs2)cc1	4.9	4.9
COCCc1noc(COc2ccccc2CO)n1	9.3	6.1
Cc1nc2ccc(C(=O)NC3CCN(Cc4ccccc4)CC3)cn2c1N(C)C(=O)CCc1ccccc1	15.6	13.6
COc1ccc(OC)c(S(=O)(=O)NC(=O)C2(C)CCN2C(=O)Cc2ccccc2)c1 (centres undefined)	-0.2	0.4
CC(Cl)C(=O)NCc1ccc(-c2ncc(-c3ccc(F)cc3)[nH]2)cc1 (centres undefined)	11.9	23.6
CC(=O)N1CCCC(S(=O)(=O)N2CCN3CCCC3C2)C1 (centres undefined)	4.9	4.4
C=c1cc(C)n(CC(=O)Nc2cc(C)cc(C)c2)c(=O)c1=C1N=C(c2ccc(F)cc2)NO1	-3.4	-9.6
COCc1cc(CN(C)c2nc(C)nc3c2cnn3C)[nH]n1	-1.3	-4.3
O=S(=O)(NC(c1ccc(F)cc1)C1CCCO1)c1cc(Br)cnc1Cl (centres undefined)	7.2	5.6
Cc1cc(Cl)c(C(=O)Nc2cccc(C)c2C)cn1	2.0	0.3

Next part, overlapping the part above by 2 compounds.
SMILES	NPYLR7 agonist	NPYLR7 agonist max-min
O=S(=O)(NC(c1ccc(F)cc1)C1CCCO1)c1cc(Br)cnc1Cl (centres undefined)	7.2	5.6
Cc1cc(Cl)c(C(=O)Nc2cccc(C)c2C)cn1	2.0	0.3
COC(=O)C1NN=C(C(=O)c2ccccc2)C1c1ccccc1 (centres undefined)	-1.2	38.4
COCCN(Cc1nc2cc(Cl)ccc2o1)C(=O)C1C[C@@H]1c1ccccc1 (some centres undefined)	1.3	-5.0
Cc1c(C(=O)NC2CCN(C(=O)OC(C)(C)C)CC2)oc2c1C(=O)CCC2	0.4	0.0
Cc1nc2ccc(NC(=O)CN(C)C(=O)OC(C)(C)C)cc2o1	5.3	4.8
Cc1cc(OCC(=O)N(CCC#N)c2ccccc2)cc2oc(=O)c3ccccc3c12	-4.3	-11.2
Cc1nn(C)c2ncc(NC(=O)CN(C)C3CCS(=O)(=O)C3)cc12 (centres undefined)	0.7	-1.5
CN(C)S(=O)(=O)c1ccc2oc(=S)[nH]c2c1	-5.2	-8.0
O=C(NCCc1ccc(Cl)cc1Cl)c1cc2n(n1)CCN(Cc1cccc(Cl)c1)C2=O	-0.4	2.5
Cc1ccc(C2=Nc3nnnn3C(c3ccc(F)cc3)C2)cc1C (centres undefined)	5.6	1.2
Oc1[nH]c2ccccc2c1N=Nc1c(Cl)cc(Cl)cc1Cl	-1.0&-4.1	-5.6&-6.3
COc1ccc(OC)c(S(=O)(=O)N2CCN(c3nc4ccccc4nc3C)CC2)c1	18.6	18.6
Cc1cc(Oc2cnn(C)c(=O)c2Nc2cccc(C(=O)NCc3ccc(F)cc3)c2)ccc1Cl	15.1	18.5
COC(=O)CN1C(c2ccc(OC)cc2)=Nc2ccc(Br)cc2C1c1ccccc1 (centres undefined)	-1.9	-3.5
CN(Cc1cccc2ncccc12)C(=O)CC1C(=O)NCCN1Cc1cccc(F)c1 (centres undefined)	2.9	-1.7
COCC(C)NC(=O)C12CCC(C)(C(=O)O1)C2(C)C (centres undefined)	-2.0	-3.9
CCN(C(C)C(=O)c1c(C)c(C(=O)OC)n(C)c1C)S(=O)(=O)c1ccc2ccccc2c1 (centres undefined)	22.8	25.1
COCC(=O)NC(CC(C)C)C1=CCCN(C)C1 (centres undefined)	1.5&19.3	1.1&11.2
CCCc1nn(-c2ccccc2Cl)c(CCC)c1C(=O)NCc1ccncc1	-18.7	-18.3
Cc1cc(F)ccc1NC(=O)CNC(=O)c1c(C)nc2sccn12	2.1	0.9
Cc1ccccc1NC(=O)c1cc2ccccc2c(CN2CCOC(C)C2)c1O (centres undefined)	8.5	4.4
CCN(CC1CCCN(CCc2cccc(F)c2)C1)C(=O)COC (centres undefined)	0.0	-2.4
Cc1cc(C(=O)N2CCN(c3cccc(C(F)(F)F)c3)CC2)n2nc(C(C)(C)C)cc2n1	-6.8&2.7	1.7&16.9
Cc1cc(I)ccc1N=Cc1nc(-c2ccccc2F)oc1O	-5.5	-8.5
O=C(c1nc2ccc(Cl)cn2c1CNCCN1CCCC(O)C1)N1CCCCCCC1 (centres undefined)	7.9	12.5
CCc1cc(N2CCN(c3ccccc3Cl)CC2)nc(SCc2ccc(C(=O)O)cc2)n1	-7.8	-2.9

Next entries.
SMILES	NPYLR7 agonist	NPYLR7 agonist max-min
N#CC(=Cc1ccc(C=C(C#N)c2nnc3n2CCCCC3)cc1)c1nnc2n1CCCCC2	2.5	3.5
CCCCCCCC(=O)N1CCN(c2nc(-c3ccc(Cl)cc3)nc(C)c2C)CC1	11.9	17.7
O=C(Nc1ncccc1OC(F)F)c1cncc(Br)c1	8.8	3.7
COc1ccc(CCn2c(-c3cccs3)nc3c(c(=O)c4ccccc4n3C)c2=O)cc1	7.9	5.2
CC(C)Oc1ccc(CN2CCN3CCN(C)CC3C2)cc1CO (centres undefined)	5.0	3.7
CC(C)CCC1(C)NC(=O)N(CC(=O)C=C2N(C)c3ccccc3C2(C)C)C1=O (centres undefined)	0.7	3.0
c1ccc2c(-c3cnc4ccc(NCc5ccncc5)nn34)cccc2c1	-3.9	-7.0
CC(=O)Nc1cccc(-c2ccc(NC(=O)CN)c(F)c2)c1	-2.9	5.7
FC(F)(F)CCc1ccnc(NCCc2cccnc2)n1	-6.4	-8.9
CC(=O)c1c(C)[nH]c(=O)[nH]c1=O	7.4	5.0
O=C(c1ccc2oc(Cc3ccccc3)nc2c1)N1CCCCCCC1	6.8	5.1
CCc1cc(=O)n(CC(=O)Nc2ccc(OC)c(OC)c2)c(-n2nc(C)cc2C)n1	-2.2	-4.2
CCOC(=O)C1CCN(C(c2ccc(C)cc2)C2Sc3ncnn3C2=O)CC1 (centres undefined)	3.0	1.9
NC(=O)OCC(O)COc1ccc(Cl)cc1 (centres undefined)	-2.9	-6.5
CCn1ccnc1CN1CCCC(CO)(Cc2cccc(OC)c2)C1 (centres undefined)	11.0&9.0	4.2&2.1
COc1ccc(-c2n[nH]c(=S)n2-c2ccccc2C)cc1OC	3.9	5.2
C=CCn1c(SCC(=O)OCC)nnc1-c1ccc([N+](=O)[O-])cc1	-3.7	-6.7
O=C(COC(=O)CSC1CC(=O)N(c2ccccc2)C1=O)Nc1cc(Cl)ccc1Cl (centres undefined)	-3.2	-4.2
CC(C)Cc1cc(C(=O)N2CCC(C(Cc3ccccc3)N(C)C(=O)c3ccsc3)CC2)n[nH]1 (centres undefined)	2.1	-3.9
O=C(C1CC1)N1CCC(NC(=O)C2(S(=O)(=O)c3ccc(Cl)cc3)CCCC2)CC1	-3.2	-4.3
Cc1onc(-c2ccccc2)c1C(=O)Nc1cc2cccc([N+](=O)[O-])c2oc1=O	-2.9	-4.3
O=C(c1cn(CC2COc3ccccc3O2)nn1)N1CCc2sccc2C1 (centres undefined)	3.1	-1.0
Cc1ccc(C)c(N(C)S(=O)(=O)c2ccc3[nH]c(=O)[nH]c(=O)c3c2)c1	9.6	7.8
COCCNC(=O)Cn1nc2c(c1NC(=O)c1cc(OC)cc(OC)c1)CSC2	-3.5	1.3
O=S(=O)(CCN1CCN(c2ncccn2)CC1)c1cc(Cl)ccc1Cl	21.8	19.2

The list goes on.
SMILES	NPYLR7 agonist	NPYLR7 agonist max-min
COc1ccc(-c2n[nH]c(=S)n2-c2ccc(Cl)c(Cl)c2)cc1OC	-3.5	1.3
COc1ccc(-c2nnc3ccc(Cl)nn23)c(OC)c1	1.8	3.4
COc1ccc(/C=C2\SC(=S)N(CC(=O)Nc3nnc(C)s3)C2=O)cc1	-5.6	-10.0
Cc1ccc(CC(=O)Nc2c(C)cccc2Cl)cn1	-2.2	41.0
O=C(Cn1nc(C2CC2)c2cnn(-c3cccc(Cl)c3)c2c1=O)c1ccccc1	10.5	5.1
CCCCCn1cnc2c1c(=O)[nH]c(=O)n2CCCC	-0.5	-2.3
O=C(NCC1CCCO1)c1cccnc1N1CCN(C(=O)c2ccc(-c3ccc(F)c(F)c3)s2)CC1 (centres undefined)	-0.1	1.8
CCCCc1ccc(NC(=O)c2sc3ccc(OC)cc3c2Cl)cc1	22.2	31.8
Cn1ccnc1CNC(=O)NCC1(CN2CCOCC2)CCCCC1	-1.4	0.9
NNc1nc(N2CCCCC2)nc(N2CCCCC2)n1	17.3	4.6
Cc1nnc2c3c4c(sc3ncn12)CCC4	2.8	2.1
CC(C)c1cc(N(C)Cc2ccccc2)nc(SCc2ccc(C(=O)O)cc2)n1	10.1	15.4
Fc1cccc(CN2CCN(Cc3ncc[nH]3)CC2)c1	-1.6	-5.5
CCN1CCN(c2ccc(CNC(=O)c3ccccc3F)cn2)CC1	3.5	2.9
N#CC(=C1NS(=O)(=O)c2ccccc21)c1nc2ccccc2[nH]1	7.7	3.6
Cc1c(Cl)cc(C(C)C)c(O)c1CN1C(=O)c2ccccc2C1=O	-11.2	-15.8
O=C(O)c1cccc(S(=O)(=O)N2CCc3ccc(Cl)cc32)c1	1.9&15.3	-1.4&10.7
CCOC(=O)c1c(C)nn(-c2ccc(C(=O)NC3CCC(C(C)(C)C)CC3)cc2)c1C (centres undefined)	-8.5	-11.7

Of the compounds above, these have an aryl methoxy group:
SMILES	NPYLR7 agonist	NPYLR7 agonist max-min
COc1ccc(CN2CCN(Cc3ccc(F)cc3)CC2CCO)c(F)c1 (centres undefined)	10.4	0.7
COc1ccc(OC)c(S(=O)(=O)NC(=O)C2(C)CCN2C(=O)Cc2ccccc2)c1 (centres undefined)	-0.2	0.4
COc1ccc(OC)c(S(=O)(=O)N2CCN(c3nc4ccccc4nc3C)CC2)c1	18.6	18.6
COC(=O)CN1C(c2ccc(OC)cc2)=Nc2ccc(Br)cc2C1c1ccccc1 (centres undefined)	-1.9	-3.5
COc1ccc(CCn2c(-c3cccs3)nc3c(c(=O)c4ccccc4n3C)c2=O)cc1	7.9	5.2
CCc1cc(=O)n(CC(=O)Nc2ccc(OC)c(OC)c2)c(-n2nc(C)cc2C)n1	-2.2	-4.2
CCn1ccnc1CN1CCCC(CO)(Cc2cccc(OC)c2)C1 (centres undefined)	11.0&9.0	4.2&2.1
COc1ccc(-c2n[nH]c(=S)n2-c2ccccc2C)cc1OC	3.9	5.2
COCCNC(=O)Cn1nc2c(c1NC(=O)c1cc(OC)cc(OC)c1)CSC2	-3.5	1.3
COc1ccc(-c2n[nH]c(=S)n2-c2ccc(Cl)c(Cl)c2)cc1OC	-3.5	1.3
COc1ccc(-c2nnc3ccc(Cl)nn23)c(OC)c1	1.8	3.4
COc1ccc(/C=C2\SC(=S)N(CC(=O)Nc3nnc(C)s3)C2=O)cc1	-5.6	-10.0
CCCCc1ccc(NC(=O)c2sc3ccc(OC)cc3c2Cl)cc1	22.2	31.8

Screening data deposited in PubChem BioAssay by Fisher Drug Discovery Resource Center.

A portion of the library (hit frequency here may not be typical).
